Vero: Vero cell cytotoxicity, dose response, cytotoxicity control for Vif-APOBEC3G degradation inhibitor project, Vero cells (AID 1117358); Vero viability, CellTiter-Glo ATP luminescence, 72 h; reference of the scale not given here; viability, % at the top dose, mostly 40 µM; hits show CC50 in µM; 2,300 compounds, 7% hits;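 active means viability down to 80% or less at some dose; inactive means above 80% at all doses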
* marks the source's active call; other numbers are inactive results.

SMILES	Vero
Cc1cccc(OCCC(=O)Nc2c(C)n(C)n(-c3ccccc3)c2=O)c1	100.3%
NC(=O)C[C@@H]1N[C@]2(C(=O)Nc3ccccc32)[C@@H]2C(=O)N(c3cc(C(F)(F)F)ccc3Cl)C(=O)[C@H]12	99.7%
COc1ccc(S(=O)(=O)N(CC(=O)O)c2ccccn2)cc1	99.8%
CC(C)c1ccc(SCc2noc(C(=O)NCC3CCCO3)c2C(=O)O)cc1 (stereo not given)	96.9%
Cc1ccc(-c2csc(NC(=O)Cc3cccs3)n2)cc1C	91.4%
COc1ccc(OC)c(N/C(C)=C/C(=O)c2ccc(C)o2)c1	100.1%
COC(=O)C1=C(N)Oc2cc(C)n(Cc3cccnc3)c(=O)c2C1c1cccc(OC)c1OC (stereo not given)	>40µM*
CCNC(=O)CC1C(=O)N(c2ccc(C)cc2)C(=O)N1CCc1ccc(OC)c(OC)c1 (stereo not given)	101.2%
CN=c1scc(-c2cccs2)n1/N=C/c1ccc(O)c(O)c1O	>40µM*
CSc1nc2ccc3nc(NC(=O)c4cccs4)sc3c2s1	99.1%
COC(=O)CCCC(=O)Nc1c(F)c(F)c(F)c(F)c1F	95.1%
O=C(O)c1ccc(Sc2nnnn2-c2ccccc2)c([N+](=O)[O-])c1	104.3%
Cn1cccc1C(=O)NC(=O)COC(=O)CC12CC3CC(CC(Br)(C3)C1)C2	97.0%
C=CCn1cc(-c2ccccc2)cc(C#N)c1=O	103.5%
Cc1c(/C=N\NC(=O)c2csc3ccccc23)cnn1C	107.0%
O=C(CCCc1c[nH]c2ccccc12)NCc1ccc2c(c1)OCO2	102.2%
CCNC(=S)Nc1ccc(N(c2ccccc2)C(C)C)cc1	95.2%
COc1ccc2ccccc2c1C1CC(=O)N2CN(Cc3ccco3)CSC2=C1C#N (stereo not given)	100.1%
Cc1cc(C(=O)CN2C(=O)c3ccccc3S2(=O)=O)c(C)n1CC1CCCO1 (stereo not given)	106.1%
Clc1ccc(OCc2nn3c(-c4ccco4)nnc3s2)c(Cl)c1	98.3%
N#Cc1nc(Cc2cccc3ccccc23)oc1NCc1ccc(F)cc1	>40µM*
Cc1occc1-c1nnc(SCC(=O)N(C)C)o1	100.2%
O/N=C1\CCC\C1=C/c1ccco1	104.1%
COCCN=c1scc(-c2cccs2)n1/N=C/c1ccc(O)c(O)c1O	97.2%
C=C(Br)Cn1c(CC)nc2ccccc21	90.8%
O=C(CSc1ccc2nnc(-c3cccnc3)n2n1)NCC1CCCO1 (stereo not given)	96.8%
CCc1noc(N)c1C(=O)Nc1ccc(F)c(Cl)c1	90.4%
Cc1ccccc1SCc1noc(C(=O)NC(C)C)c1C(=O)O	96.6%
CCNc1nc(OCCNS(=O)(=O)c2cc(C)ccc2C)nc(N(C)C)n1	82.2%
CC(=NCc1ccc2c(c1)OCO2)C1=C(O)c2ccccc2C1=O	90.5%
O=C(CSc1nncs1)NC(=O)NCc1ccccc1	91.5%
CCCn1nc(C(=O)Nc2cc(C(=O)OC)ccc2C)c2ccccc2c1=O	103.6%
N#C/C(C(N)=O)=c1/ccc2c(c1)N1C3=C(CCCC3)CC3CCCCC31N=2 (stereo not given)	104.2%
CC(C)Cn1c(N)c(C(=O)NCc2cccs2)c2nc3ccccc3nc21	101.1%
O=C(CN(C(=O)c1cc2c(s1)CCC2)C1CCCC1)NCc1cccs1	91.8%
NC(=S)N=Nc1c(O)n(C2OC(=O)c3ccccc32)c2ccccc12 (stereo not given)	103.0%
Cn1c(CN2CCOCC2)nc2cc(NC(=O)c3ccc(F)cc3)ccc21	94.2%
CCOC(=O)Cc1cc(=O)n2[nH]c(C)cc2n1	92.9%
O=c1oc(-c2cccnc2)nc2ccccc12	93.3%
CC(C)OCCCNC(=O)CNC(=O)c1cccs1	99.7%
Cc1cccnc1Nc1nc(-c2ccc(O)c(O)c2)cs1	>40µM*
COc1cc(NC(=O)CCn2c(=O)[nH]c3ccsc3c2=O)cc(OC)c1	103.1%
CCC(C)NS(=O)(=O)c1ccc(S(=O)(=O)N(CC(=O)Nc2ccccc2)CC2CCCO2)cc1 (stereo not given)	97.2%
CN1c2ccsc2C(O)=C(C(=S)Nc2ccc(F)c(Cl)c2)S1(=O)=O	87.6%
O=C1CC(c2ccco2)CC(O)=C1C=Nc1cc(Cl)ccc1O (stereo not given)	96.8%

Entries from the list above containing a cyano group:
SMILES	Vero
C=CCn1cc(-c2ccccc2)cc(C#N)c1=O	103.5%
COc1ccc2ccccc2c1C1CC(=O)N2CN(Cc3ccco3)CSC2=C1C#N (stereo not given)	100.1%
N#Cc1nc(Cc2cccc3ccccc23)oc1NCc1ccc(F)cc1	>40µM*
N#C/C(C(N)=O)=c1/ccc2c(c1)N1C3=C(CCCC3)CC3CCCCC31N=2 (stereo not given)	104.2%

(cont.)
SMILES	Vero
Cc1cc(C(C)(C)C)ccc1OCCN(C)C	93.8%
Cn1cc(Br)c(C(=O)NC2CCCCC2)n1	98.9%
CC1(C)Cc2nc3sc4c(SCC(=O)NCc5ccco5)ncnc4c3cc2CO1	104.5%
O=c1cc(CO)oc(C(Nc2ccccn2)c2ccc(F)cc2)c1O (stereo not given)	94.3%
Cc1cccc(OCc2nc3ccccc3c(=O)n2N)c1	91.2%
COC(=O)c1cc2c(ccn2-c2ccc(F)cc2)n1CC(C)C	92.7%
Cc1onc(-c2ccccc2Cl)c1C(=O)NCc1ccco1	102.7%
CS(=O)(=O)N(CC(=O)NCc1ccc2c(c1)OCO2)Cc1ccccc1	96.3%
CN(C)[C@H]1N(C(=O)c2ccc(Br)cc2)N=C2c3ccccc3S(=O)(=O)N21	94.4%
O=C(NN=C1CCCC1)C(=O)Nc1cccc(C(F)(F)F)c1	97.1%
COc1ccc(CC(=O)Nc2ccc(-c3csc(C)n3)cc2)cc1	100.7%
O=C(NCCN1CCN(c2ccccc2)CC1)C1CCN(S(=O)(=O)c2cccc3nonc23)CC1	100.9%
COc1ccccc1N(C)S(=O)(=O)c1ccc(C(=O)NC(C)(C)C)cc1	92.6%
CCCn1c(=N)n(CC(O)c2ccco2)c2ccccc21 (stereo not given)	107.5%
O=C(Cn1cnc2c(cnn2-c2ccc(F)cc2)c1=O)N1CCN(c2ccccc2)CC1	90.6%

Arranged by molecular weight (smallest number first): 4 of the compounds above.
SMILES	Vero
O=c1cc(CO)oc(C(Nc2ccccn2)c2ccc(F)cc2)c1O (stereo not given)	94.3%
COc1ccccc1N(C)S(=O)(=O)c1ccc(C(=O)NC(C)(C)C)cc1	92.6%
CN(C)[C@H]1N(C(=O)c2ccc(Br)cc2)N=C2c3ccccc3S(=O)(=O)N21	94.4%
O=C(NCCN1CCN(c2ccccc2)CC1)C1CCN(S(=O)(=O)c2cccc3nonc23)CC1	100.9%

The listing continues.
SMILES	Vero
COc1cccc(CNCCc2c[nH]c3ccccc23)c1OCc1ccccc1	>40µM*
CCOC(=O)N1CCC(Nc2c(-c3ccc(C)cc3)c(=O)c2=O)CC1	98.5%
COc1ccc(OC)c(NC(=O)CCN2CCC(C)CC2)c1	90.3%
CCOC(=O)c1c(NC(=O)c2cc(CC(C)C)on2)sc(C(C)=O)c1C	100.1%
CCCN(CCC)C(=O)c1cc(-c2ccc3c(c2)OCO3)nc2ccccc12	85.0%
CN1CCC(N(C)C(=O)COc2ccccc2-c2ccccc2)CC1	102.4%
Cc1cccc(N2CCN(C(=O)c3ccncc3)CC2)c1C	>40µM*
CCn1cc(C(=O)NCc2ccco2)c2cc(OC)c(OC)cc2c1=O	99.5%
COc1ccc(C)cc1-n1c(SCC(=O)Nc2cc(C)on2)nc2sc(C)c(C)c2c1=O	102.9%
Cc1cc(=O)c2c(O)c(O)ccc2o1	86.5%
Cc1ccccc1N1C(=O)C2ON(c3ccccc3)C(c3cccnc3)C2C1=O (stereo not given)	90.4%
O=C(COC(=O)c1cc(-c2ccco2)nc2ccccc12)NCc1ccc2c(c1)OCO2	100.7%
CN(C)S(=O)(=O)N1CCN(c2ccc(Cl)cc2)CC1	103.4%
N#CCOC(=O)c1sccc1-n1cccc1	92.7%
CCOC(=O)c1c(C)[nH]c(C(=O)OCC(=O)N2c3ccccc3CC2C)c1C (stereo not given)	92.0%

Some of the entries so far, as comma-separated lines:
compound,Vero
CCCN(CCC)C(=O)c1cc(-c2ccc3c(c2)OCO3)nc2ccccc12,85.0%
CCOC(=O)c1c(C)[nH]c(C(=O)OCC(=O)N2c3ccccc3CC2C)c1C (stereo not given),92.0%
CCn1cc(C(=O)NCc2ccco2)c2cc(OC)c(OC)cc2c1=O,99.5%

The results go on.
SMILES	Vero
CN(C)c1ccc(N=C/C=C2/N(C)c3ccccc3C2(C)C)cc1	102.6%
COCCNc1nnc(SC(C)C(=O)Nc2ccc(-c3nc4ccc(C)cc4s3)cc2)s1 (stereo not given)	97.0%
Cc1ccc(-n2ncc3c(=O)[nH]cnc32)c(C)c1	103.9%
O=C(Cn1ccc([N+](=O)[O-])n1)N1CCCc2ccccc21	96.7%
CC(SC1=NCCS1)C(=O)Nc1nnc(-c2ccc(Cl)cc2)s1 (stereo not given)	86.9%
Cn1cc(Cl)c(C(=O)Nc2nc3ccccc3s2)n1	84.5%
O=[n+]1c2c(n([O-])c3cc(Br)ccc31)CCC2	84.1%
O=C(c1ccc2nc(-c3ccco3)c(-c3ccco3)nc2c1)N1CCN(c2ncccn2)CC1	105.1%
Nc1ccc(N2CCCCCC2)cc1	90.3%
O=C(CCc1ccccc1)Nc1ccc2c(c1)OCCO2	88.0%
CCC(C(=O)OCC(=O)Nc1ccc(SC(F)F)cc1)c1ccccc1 (stereo not given)	92.0%
Cn1c(N)c(C(=O)COC(=O)C2CCCCC2)c(=O)n(C)c1=O	100.4%
CCc1cc2cc(C)cc(C)c2nc1SCC(=O)N1CCN(C(=O)c2ccco2)CC1	99.1%
Cc1ccc(C(=O)OC2CCS(=O)(=O)c3sccc32)cc1 (stereo not given)	32.7µM*
COc1ccc(OC)c(C2C(C(=O)Nc3ccc(F)cc3)=C(C)Nc3nc(CCCO)nn32)c1 (stereo not given)	98.0%
CC(C)(C)OC(=O)NC(CCNC=C1C(=O)OC(C)(C)OC1=O)C(=O)O (stereo not given)	96.3%
O=C(CN1C(=O)CSC1=O)Nc1ccccc1N1CCOCC1	86.4%
CC1(CCc2ccc3c(c2)OCO3)NC(=O)c2ccccc2N1 (stereo not given)	96.2%
O=C(Nc1nncs1)c1c(F)c(F)c(F)c(F)c1F	87.4%
COc1ccc2c3c(c(=O)oc2c1OCC(=O)C(C)(C)C)CCCC3	96.2%
CN1CCN(C(=O)C2CCN(S(=O)(=O)c3cnc[nH]3)CC2)CC1	94.8%
Nc1nnc(CC2=CCCCC2)s1	96.5%
CCC(Sc1nc(-c2ccccc2)cc(=O)[nH]1)C(=O)O (stereo not given)	106.7%
CCS(=O)(=O)Nc1ccc(C(=O)CC2(O)C(=O)Nc3ccccc32)cc1 (stereo not given)	96.5%
CCCC(=O)Nc1ccccc1NC(C)=O	96.7%
Cc1ccc(S(=O)(=O)Nc2cc(NC(=O)CN3CCOCC3)ccc2Cl)cc1	99.5%
COC(=O)C1=C(C)NC(=O)C1(NS(=O)(=O)c1ccc(C)cc1)C(F)(F)F (stereo not given)	98.8%
O=C(NC(=S)N1CCN(c2c(Cl)cccc2[N+](=O)[O-])CC1)c1cccs1	>40µM*
c1ccc(-c2nnc(-c3ccncc3)o2)cc1	90.7%
CCOC1(OCC)N=C(N)C2(C#N)C(c3cccc(OC)c3OC)C12C#N (stereo not given)	94.1%
Cc1cc2ncn(C(=O)N3CCOCC3)c2cc1C	96.1%
COc1ccc(-c2nc(CS(=O)CC(=O)NCc3ccco3)c(C)o2)cc1 (stereo not given)	96.2%
CCOC(=O)C1=C(O)/C(=C/c2ccc(CNC(=O)C(=O)Nc3ccc(C)cc3)o2)N=C1C	95.8%
O=C(CN1CCN(S(=O)(=O)c2ccc(Cl)cc2)CC1)Nc1ccc2c(c1)OCCO2	87.7%
CS(=O)(=O)N1CCC(C(=O)NCCc2ccccc2)CC1	86.7%
Cc1ccc(S(=O)(=O)N2CCN(Cc3nc4sc(C)c(C)c4c(=O)[nH]3)CC2)cc1	107.8%
COc1ccc(NC(=O)Cc2ccc(Cl)cc2)cc1NC(=O)c1ccco1	112.1%
O=C(Nc1nc2n(n1)C(c1ccccc1)CC(c1ccc(Cl)cc1)N2)c1ccco1 (stereo not given)	96.0%
O=C(OCn1nnc2ccccc2c1=O)C1=COCCO1	95.9%
CCc1nc(SCC(=O)Nc2ccc(C(=O)O)cc2)n[nH]1	96.0%
COc1ccc(CCNC(=O)CSc2nc(-c3ccco3)cc(C(F)(F)F)n2)cc1	>40µM*
COc1ccc(/C=N/NC(=O)c2ccc3ccccc3c2)cc1OS(=O)(=O)c1ccc(NC(C)=O)cc1	>40µM*
Cc1cc(NC(=O)CC(CN(C)S(=O)(=O)c2ccccc2)c2ccccc2)no1 (stereo not given)	97.6%
CC(=O)Nc1ccc(S(=O)(=O)NCCSCc2ccco2)cc1	103.7%
C=CCOC(=O)C1=C(C)NC(SCC(=O)Nc2ccccc2)=C(C#N)C1c1ccco1 (stereo not given)	92.4%
Cc1sc2nc(SCC(=O)N3CCOCC3)[nH]c(=O)c2c1C	92.4%
CCC(C)N1CC23C=CC(O2)C(C(=O)OC)C3C1=O (stereo not given)	97.5%
O=[N+]([O-])c1ccc(N2CCN(c3ccc(Cl)nn3)CC2)c(Cl)c1	103.4%
CCCC(=Nc1ccc(N)cc1)C1=C(O)C(C(=O)OC)C(C)(C)CC1=O (stereo not given)	96.6%
COc1cc(OC)cc(C(=O)NC2CCN(C(=O)N3c4ccccc4Sc4ccccc43)CC2)c1	100.9%
CCOc1cc(C)nc(NCCc2ccc(OC)c(OC)c2)n1	90.1%
Cc1cc(C)c2nc(N3CCCN(C(=O)c4cnccn4)CC3)c(C#N)cc2c1	102.1%
O=C(c1ccco1)N1CCN=C1SCc1ccccc1F	103.6%
COc1ccc(NC(=O)c2c(OC)cccc2OC)c(OC)c1	91.8%
COc1cccc(NC(=O)CSc2nnnn2C(C)C)c1	98.3%
O=C(Nc1ccccc1C(=O)NC(Cc1c[nH]c2ccccc12)C(=O)O)c1ccco1 (stereo not given)	91.0%
COC(=O)c1ccc(C)c(NC(=O)CCSc2ccccc2)c1	98.6%
O=C1COc2ccc(C(=O)CSc3nnc(-c4cccs4)n3Cc3ccccc3)cc2N1	95.2%
CC(=O)c1cccc(NC(=O)CN2C(=O)NC3(CCCCCCC3)C2=O)c1	97.5%

From PubChem BioAssay

Only part of the results is shown; count on the stated rates, not on these rows.
